# Autofluor counter – flagged as autofluorescent in microsphere protease counterscreen | compound autofluorescence counterscreen, microsphere flow cytometry; stronger effect = higher value | fluorescence intensity (test concentration not listed) | hit rate 3.1% among 360,000;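 active means at least 3 SD above the mean of all compounds, about 16000 in these data; inconclusive means too few beads counted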;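 further: 100 nL of 1 mM stock went into each well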
# BJeLR lethal – kills HRASV12-expressing BJeLR cells | BJeLR (HRASV12) viability, CellTiter-Glo ATP luminescence, 48 h; reference of the scale not given here | inhibition, % (no concentration beside the values) | hit rate 0.17% among 300,000 | AID 1554;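 active means replicate mean above 50%; inconclusive means above 50% but judged a plate artefact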;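 further: 50 nL library stock added to about 25 µL; numbers are from one replicate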
# PrP UTR inh – suppresses PrP 5' UTR mRNA reporter expression; cell-based PrP 5' UTR mRNA reporter, plate reader; inhibition, % (no concentration beside the values); hit rate 0.35% among 340,000; AID 488862;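 active means every replicate at 50% or more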;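 further: 0 = median of the neutral control wells; tested in H4 reporter cells; numbers are from one replicate; inactives centre near -14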
# ugtP null kill – growth inhibition of S. aureus ugtP deletion strain; S. aureus RN4220 ugtP deletion, OD600 growth, 16 h; some inactives read as strong as hits; growth inhibition, % (concentration not given with the values); hit rate 0.54% among 330,000; AID 1259309;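 active means z-score under -3 and OD600 up to 0.15 on both plates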;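 further: plate controls were untreated wells for no effect and antibiotic for full effect; wells of about 80 µL received 100 nL stock; the first replicate is given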
# Sa RN4220 lethal – S. aureus RN4220 growth inhibition | OD600, 16 h | inhibition, % (no concentration beside the values) | hit rate 0.33% among 330,000 | AID 1259311;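 active means z-score of -3 or lower and OD600 up to 0.18 on both plates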;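 further: plate controls were untreated cells for no effect and reference antibiotic for full effect; stock transfer was 100 nL into about 80 µL; one replicate is shown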
# Mtb hypoxia inh – Mtb hypoxia fluorescent reporter inhibition; M. tuberculosis hypoxia-regulated fluorescent reporter, fluorescence; fluorescence inhibition, % (no concentration beside the values); hit rate 0.1% among 300,000; AID 1159583;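 active means 35 to 45% if threefold the growth effect, above 45% if 1.5-fold the growth effect; inactive means the rest, general growth blockers included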;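 further: wells of about 50 µL received 100 nL stock; 0% = vehicle wells and 100% = reference inhibitor wells; whole bacteria with a GFP reporter of the hypoxia response; strong numbers were not always called active; many hits fall short of the cut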
# Mtb hypoxia inh growth – further read-out of Mtb hypoxia inh, marked with its call; growth inhibition, %; measured here: M. tuberculosis growth (absorbance);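 0% = vehicle and 100% = reference antibiotic; read after six days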
# The depositor's hits bear a star; ? = inconclusive; · = no result given.
SMILES,Autofluor counter,BJeLR lethal,PrP UTR inh,ugtP null kill,Sa RN4220 lethal,Mtb hypoxia inh,Mtb hypoxia inh growth
COc1ccc(CCC(=O)NCCS(=O)(=O)N2CCN(c3ccc(OC)cc3)CC2)cc1,5424,10.7,-19.6,2.7,-0.9,1.6,11.8
CCOc1ccc(-c2noc(CCC(=O)NC)n2)cc1OCC,3909,-2.3,-18.1,3.3,3.7,-2.0,5.7
Cc1cnc(NC(=O)c2cc3ccccc3o2)s1,4246,8.0,-24.2,3.1,1.8,7.6,-2.0
NS(=O)(=O)c1ccc(Nc2ccc3cc(S(=O)(=O)N4CCCCC4)ccc3n2)cc1,6383,-5.4,-10.2,-9.2,-1.3,1.0,5.9
O=C(CSc1nnc(NC(=O)C2CC2)s1)Nc1ccccc1C(F)(F)F,6096,-6.1,-21.3,7.9,1.7,-1.4,1.1
CCC(=O)Nc1ccc(-c2nnc(SCc3ccc(C(=O)Nc4nccs4)cc3)n2CC)cc1,3403,8.9,-36.8,-2.1,-15.9,0.1,11.3
O=C(Nc1ccc(-c2nc3ccccc3o2)cc1)c1ccc2c(c1)OCO2,16511*,-1.2,-18.5,1.7,0.7,5.4,5.0
O=CN1CC(=O)N(c2ccccc2)c2c([nH]c3ccccc23)C1,8872,5.5,-2.3,1.1,1.2,4.3,7.6
COc1ccc(-c2nc3ccccc3s2)cc1O,4606,7.2,48.8,1.7,-0.7,2.1,4.6
CN(C)/C=C/C(=O)c1ccc2noc(-c3ccccc3)c2c1,3761,12.0,41.8,0.2,9.3,-2.7,-1.5
CN(C)CCNCc1ccc(OC2CCCC2)cc1,10105,4.9,-9.9,5.1,2.4,12.0,7.4
O=C(NC1CCCCC1)C(c1ccc(F)cc1)N(CCN1CCOCC1)C(=O)c1ccc(-c2ccccc2)[nH]1 (centres undefined),4609,9.6,-13.3,5.2,-2.8,-1.5,-3.9
N#C/C(=N\Nc1ccccc1)C(=N)N1CCCCC1,2364,0.4,-51.5,·,·,·,·
CC(Cc1ccccc1)=NNC(=O)CNC(=O)c1ccccc1O,·,·,·,0.4,5.9,7.8,7.6
CCN(C(=O)Cn1c(=O)n(Cc2ccccc2)c(=O)c2ccccc21)c1cccc(C)c1,6575,1.8,-19.2,6.7,6.4,6.2,2.3

# 3 compounds out of the list, ordered by SMILES length, falling:
SMILES,Autofluor counter,BJeLR lethal,PrP UTR inh,ugtP null kill,Sa RN4220 lethal,Mtb hypoxia inh,Mtb hypoxia inh growth
O=C(NC1CCCCC1)C(c1ccc(F)cc1)N(CCN1CCOCC1)C(=O)c1ccc(-c2ccccc2)[nH]1 (centres undefined),4609,9.6,-13.3,5.2,-2.8,-1.5,-3.9
O=C(Nc1ccc(-c2nc3ccccc3o2)cc1)c1ccc2c(c1)OCO2,16511*,-1.2,-18.5,1.7,0.7,5.4,5.0
N#C/C(=N\Nc1ccccc1)C(=N)N1CCCCC1,2364,0.4,-51.5,·,·,·,·

# Other results follow:
SMILES,Autofluor counter,BJeLR lethal,PrP UTR inh,ugtP null kill,Sa RN4220 lethal,Mtb hypoxia inh,Mtb hypoxia inh growth
Cc1ccc(-c2nnc(CN3CCN(C)CC3)o2)cc1,4324,-1.3,-13.4,16.7,0.4,3.7,5.6
Cc1cc(=O)[nH]c(SCC(=O)Nc2ccc(N3CCCCC3)cc2)n1,3823,·,-8.8,6.0,4.1,2.6,3.0
COc1ccc(-c2noc(C3CCCN(S(=O)(=O)c4cccc(Cl)c4C)C3)n2)cc1OC (centres undefined),17219*,-3.8,-5.7,-2.5,-2.9,3.8,3.7
Cc1ccc(NC(=O)Cn2c(=O)oc3ccccc32)cc1C,3473,-2.4,-33.5,10.9,3.9,10.2,3.7
Cc1ccc(CC(=O)N(Cc2ccccc2)c2ccccn2)cc1,2453,-3.7,0.5,9.1,4.4,16.3,9.7
CCOC(=O)C1=C(C)N(CCCC(=O)O)C(=O)NC1C(CC)CC (centres undefined),3545,3.2,-7.0,-1.1,2.2,3.6,2.6
CCOC(=O)c1ccc(NC(=O)c2cc3ccccc3o2)cc1,3269,10.2,-38.8,-23.9,-4.6,-5.4,1.0
CCN1CCN(CCCNC(=O)c2ccc(/C=C3/Sc4ccccc4N(Cc4ccccc4F)C3=O)cc2)CC1,5736,11.8,-36.9,23.3,-4.4,3.8,-4.0
Cc1ccc2c(c1)c(=O)c1c3n2CCN(C(=O)CCl)C3CC1 (centres undefined),2040,-1.4,12.2,-1.0,3.4,·,·
CCCCC(=O)NC(=S)Nc1cc(C(=O)O)ccc1Cl,2487,-6.3,-40.6,3.8,1.7,-0.2,5.3
Cc1cc(C)nc(SCc2nnc(SCC(=O)Nc3nc(-c4ccccc4)cs3)n2C)n1,4918,1.7,-3.3,-4.9,3.6,13.5,6.3
O=C(CN1N=C(c2ccccc2)CCC1=O)NCc1cccs1,3244,2.1,-24.2,·,·,·,·
Oc1ccc(C=NNc2cc(N3CCCC3)nc(N3CCCC3)n2)cc1,·,·,·,-28.2,2.6,-26.5,6.0
CCOc1ncccc1C(=O)OCC(=O)Nc1ccc2c(c1)OCO2,2672,7.4,-7.3,-1.6,2.2,4.3,-0.9
CCn1c(Cc2ccccc2)nnc1SCC(=O)Nc1nc(C)cs1,4448,-13.0,-26.4,-7.5,6.2,15.3,16.7

# Fetched by compound from above (2):
SMILES,Autofluor counter,BJeLR lethal,PrP UTR inh,ugtP null kill,Sa RN4220 lethal,Mtb hypoxia inh,Mtb hypoxia inh growth
CCN1CCN(CCCNC(=O)c2ccc(/C=C3/Sc4ccccc4N(Cc4ccccc4F)C3=O)cc2)CC1,5736,11.8,-36.9,23.3,-4.4,3.8,-4.0
COc1ccc(-c2noc(C3CCCN(S(=O)(=O)c4cccc(Cl)c4C)C3)n2)cc1OC (centres undefined),17219*,-3.8,-5.7,-2.5,-2.9,3.8,3.7

# Going on with the list:
SMILES,Autofluor counter,BJeLR lethal,PrP UTR inh,ugtP null kill,Sa RN4220 lethal,Mtb hypoxia inh,Mtb hypoxia inh growth
O=C(c1ccc2c(c1)OCCO2)N(c1ccccn1)C1CCCCC1,2950,-3.6,-14.5,-6.0,0.0,·,·
CCC(=NO)C(=O)c1ccc(Br)cc1,·,·,·,4.2,8.5,-9.8,-2.4
CCOc1cc(C)nc(Oc2ccc(=O)[nH]n2)n1,23697*,2.6,15.7,10.2,6.0,11.7,4.2
CCOC(=O)c1sc(NC(=O)CSc2nnc(-c3ccco3)n2CC)c(C(=O)OCC)c1C,9313,-0.2,-11.5,-13.2,-3.6,5.4,3.2
O=C(Cc1ccccc1)NCC(=O)OCC(=O)c1ccc(Cl)cc1,6062,4.8,-7.9,0.5,5.6,0.8,1.0
COc1cc(C(=O)NC2CCCCCCC2)cc(OC)c1OC,·,-3.9,-18.9,8.0,6.5,13.5,12.4
CS(=O)(=O)c1ncc(Cl)c(C(=O)Nc2ccc3ccccc3c2)n1,2202,17.2,-24.9,-2.4,9.4,9.8,-3.3
CCC(=O)Nc1nc(C)c(C(=O)Nc2cccc(Cl)c2)s1,3856,-1.5,-11.8,-2.7,-2.7,8.1,17.1
O=C1OC(c2ccccc2)Sc2ccccc21 (centres undefined),3674,·,0.0,0.4,5.2,4.4,21.8
CC(=O)N1CCN(c2ccc(NC(=O)c3ccc4c(c3)OCO4)cc2)CC1,6916,-4.5,-6.9,-4.6,-2.3,-4.8,-1.2
CC(C)[C@H](NS(=O)(=O)c1ccc(Cl)cc1)C(=O)OCC(=O)NCCN1C(=O)CSC1=O,4284,-6.1,-21.9,8.6,1.2,0.3,-5.3
COc1ccccc1/C=C/C(=O)NC(=S)NC(C)C,2121,-5.6,-27.1,13.9,-0.7,-4.0,13.1
COc1ccc([N+](=O)[O-])cc1NCc1cccnc1,4252,-3.5,-17.6,-2.2,4.8,4.3,5.4
CCOC(=O)C1=C(C)N(C)C(=O)NC1c1cc2c(cc1Br)OCO2 (centres undefined),5753,-0.3,-4.2,-8.2,5.9,·,·
COc1cc(C2C(C#N)=C(N)Oc3cc(O)ccc32)cc(OC)c1OC (centres undefined),11246,-9.4,-13.9,-0.4,1.2,-0.9,-5.3
CC(=NNC(=O)CNC(=O)C1COc2ccccc2O1)c1ccc(Cl)cc1 (centres undefined),·,·,·,3.4,1.3,9.0,10.4
COc1ccc2c(C)c(CC(=O)N3CCN(C(=O)C4COc5ccccc5O4)CC3)c(=O)oc2c1C (centres undefined),6312,-1.2,2.7,5.1,0.4,5.3,3.8
Cc1cccc(Cc2cnc(N3C(=N)SC(c4ccccc4)C3=O)s2)c1 (centres undefined),2450,-13.6,3.8,-8.0,32.5,5.2,7.9
O=c1[nH]cnc2sc3c(c12)CCN(Cc1ccccc1)C3,3721,8.7,-22.1,-0.2,-2.5,3.6,-7.4
O=C(OC(C(=O)O)C(OC(=O)c1ccccc1)C(=O)NCc1ccccc1)c1ccccc1 (centres undefined),3080,-16.5,-20.6,10.1,3.7,9.2,8.7
COC(=O)C(=Cc1c(OC)cc(OC)cc1OC)C(=O)c1ccc2c(c1)OCO2,·,·,·,3.0,5.3,5.7,6.8
Cc1ccccc1CC1(CO)CCCN(Cc2ccn[nH]2)C1 (centres undefined),4885,8.8,-18.6,-0.6,1.1,5.7,10.5
O=C(OCC(=O)N1CCOCC1)c1ccc(Cl)nc1,22562*,5.9,-47.7,-1.6,1.6,7.9,5.9
Cc1cc(NC(=O)CSc2nnnn2C)n(-c2ccccc2)n1,2135,0.7,-3.3,-1.8,3.0,·,·
CCCCCCCC(=O)NNC(=O)c1ccc(F)cc1,8056,-13.3,-23.8,13.4,5.5,8.7,3.9
N#CCc1ccccc1C(=O)OCC(=O)N(Cc1ccccc1)Cc1ccccc1,?,·,7.3,-3.1,9.6,-3.3,4.4
COc1ccc(CN2C(=O)C(C)Nc3ncnc(N4CCN(c5ccccn5)CC4)c32)cc1 (centres undefined),4077,·,-5.8,0.3,1.6,7.8,2.2
CC12CCC(C(=O)NCc3ccc(F)cc3)(OC1=O)C2(C)C (centres undefined),5294,-9.3,-38.0,0.6,2.0,5.6,2.9
CC1=C(C(N)=O)C(c2sccc2C)n2nnnc2N1 (centres undefined),·,-2.8,-22.5,3.0,1.3,16.0,6.3
CC1(C)CCCN(C(=O)N2c3ccccc3Sc3ccccc32)C1,3581,-13.6,0.5,-8.4,0.2,·,·

# Some of the entries so far, bar-delimited:
structure | Autofluor counter | BJeLR lethal | PrP UTR inh | ugtP null kill | Sa RN4220 lethal | Mtb hypoxia inh | Mtb hypoxia inh growth
CC1=C(C(N)=O)C(c2sccc2C)n2nnnc2N1 (centres undefined) | · | -2.8 | -22.5 | 3.0 | 1.3 | 16.0 | 6.3
COc1ccc2c(C)c(CC(=O)N3CCN(C(=O)C4COc5ccccc5O4)CC3)c(=O)oc2c1C (centres undefined) | 6312 | -1.2 | 2.7 | 5.1 | 0.4 | 5.3 | 3.8
N#CCc1ccccc1C(=O)OCC(=O)N(Cc1ccccc1)Cc1ccccc1 | ? | · | 7.3 | -3.1 | 9.6 | -3.3 | 4.4
Cc1cccc(Cc2cnc(N3C(=N)SC(c4ccccc4)C3=O)s2)c1 (centres undefined) | 2450 | -13.6 | 3.8 | -8.0 | 32.5 | 5.2 | 7.9

# (further entries)
SMILES,Autofluor counter,BJeLR lethal,PrP UTR inh,ugtP null kill,Sa RN4220 lethal,Mtb hypoxia inh,Mtb hypoxia inh growth
CCN(CC)c1ccc(/C=N\N2CCN(Cc3ccc(C)cc3)CC2)cc1,4445,7.6,-19.5,·,·,·,·
COc1ccc(-c2nnc(SCC(=O)Nc3ccccc3OC)o2)cc1,15831,20.7,-127.0,-1.9,2.6,-1.7,-2.3
Cn1cc(S(=O)(=O)c2ccccc2)n(C)c1=O,4052,0.6,-9.1,1.8,6.1,7.3,8.1
CN1CCN(C(=O)c2ccccc2NS(=O)(=O)c2ccc(F)cc2)CC1,2983,·,-25.4,7.6,-2.5,5.7,0.1
COc1cc2c(cc1OC)C(COc1ccccc1OC)N(C(=O)C(C)C)CC2 (centres undefined),3866,4.3,-19.9,5.5,1.4,-3.2,11.6
CC(C)CNC(=O)C1CCN(c2ccc(S(=O)(=O)N3CCOCC3)cc2)CC1,9821,1.2,-29.4,0.2,1.1,-1.5,5.8
COc1ccc2c(c1)C(CC(=O)NN)CCC2 (centres undefined),3811,·,-2.1,-6.1,-0.8,-5.4,-2.2
NC(=O)C1=CC(c2csc3ccccc23)CC(OCCCCO)O1 (centres undefined),·,·,·,0.1,-0.5,10.7,2.6
COc1ccc(C(=O)NC2CCCCCCC2)cc1OC,4015,-1.9,-24.0,-1.0,3.5,-1.0,12.1
